From PubChem
PrP 5UTR inh – inhibition of PrP 5' UTR reporter expression; cell-based PrP 5' UTR mRNA reporter, plate reader; inhibition, % (no concentration beside the values); hit rate 0.35% among 340,000; AID 488862;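 active = every replicate at 50% or more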;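 note: 0 = median of the neutral control wells; tested in H4 reporter cells; numbers are from one replicate; inactives centre near -14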
Sa RN4220 lethal – kills Staphylococcus aureus RN4220; S. aureus RN4220 growth, OD600, 16 h; inhibition, % (concentration not given with the values); hit rate 0.33% among 330,000; AID 1259311;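 active = z-score of -3 or lower and OD600 up to 0.18 on both plates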;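 note: plate controls were untreated cells for no effect and reference antibiotic for full effect; stock transfer was 100 nL into about 80 µL; one replicate is shown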
BJeLR viability – kills HRASV12-expressing BJeLR cells; BJeLR (HRASV12) viability, CellTiter-Glo ATP luminescence, 48 h; reference of the scale not given here; inhibition, % (concentration not given with the values); hit rate 0.17% among 300,000;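 active = replicate mean above 50%; inconclusive = above 50% but judged a plate artefact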;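 note: 50 nL library stock added to about 25 µL; numbers are from one replicate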
ugtP null kill – compounds lethal to S. aureus RN4220 ugtP deletion mutant; OD600 growth, 16 h; some inactives read as strong as hits; growth inhibition, % (concentration not given with the values); hit rate 0.54% among 330,000;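 active = z-score under -3 and OD600 up to 0.15 on both plates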;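 note: plate controls were untreated wells for no effect and antibiotic for full effect; wells of about 80 µL received 100 nL stock; the first replicate is given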
Bead autofluor – flagged as autofluorescent in microsphere protease counterscreen. AID 624483. fluorescence intensity (test concentration not listed). compound autofluorescence counterscreen, microsphere flow cytometry; stronger effect = higher value. hit rate 3.1% among 360,000;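 active = at least 3 SD above the mean of all compounds, about 16000 in these data; inconclusive = too few beads counted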;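 note: 100 nL of 1 mM stock went into each well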
Mtb hypoxia rep – reduces hypoxia-regulated biosensor signal in M. tuberculosis | hit rate 0.1% among 300,000 | fluorescence inhibition, % (test concentration not listed) | AID 1159583 | M. tuberculosis hypoxia-regulated fluorescent reporter, fluorescence;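 active = 35 to 45% if threefold the growth effect, above 45% if 1.5-fold the growth effect; inactive = the rest, general growth blockers included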;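 note: wells of about 50 µL received 100 nL stock; 0% = vehicle wells and 100% = reference inhibitor wells; whole bacteria with a GFP reporter of the hypoxia response; strong numbers were not always called active; many hits fall short of the cut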
Mtb hypoxia rep growth – second read-out of Mtb hypoxia rep, no call of its own (marks repeat the call); growth inhibition, %; measured here: M. tuberculosis growth (absorbance);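 0% = vehicle and 100% = reference antibiotic; read after six days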
* = called active by the depositor; ? = inconclusive; / = not tested or not shown.

SMILES	PrP 5UTR inh	Sa RN4220 lethal	BJeLR viability	ugtP null kill	Bead autofluor	Mtb hypoxia rep	Mtb hypoxia rep growth
O=C(COc1ccc([N+](=O)[O-])cc1)NNC(=O)Nc1ccccc1F	-7	2.4	-2	9	4554	6	-6
COc1ccc(CCC(=O)Nc2ccc(Br)cn2)cc1	-14	3.7	7	22	24589*	1	1
CC(C)C(=O)NCCc1nc(-c2ccccc2Cl)no1	5	4.3	-2	-2	3871	13	12
Cc1ccc(NC(=S)NNC(=O)c2cccc([N+](=O)[O-])c2)cc1Cl	-26	-2.8	-1	14	4556	2	11
CCSC1=NC(=Cc2ccccc2)C(=O)N1	/	9.9	/	1	/	9	9
Cc1c(NC(=O)CN2CCCC(C)C2)ccc2nsnc12 (configuration not stated)	-22	6.1	7	2	4124	5	2
COc1ccc(OC)c(NC(=O)c2cc3oc4ccccc4c3cc2O)c1	-12	/	-3	/	3819	/	/
Cc1ccc(C(=O)CCC2CCCCC2=O)cc1 (configuration not stated)	-57	8.6	-14	-3	19947*	/	/
O=C1CN(C(=O)CSc2ccccn2)c2ccccc2N1	-18	4.9	/	1	3400	6	7
COc1ccc(O)c(/C=N/N2CCCCC2)c1	-38	/	6	/	3895	/	/
CC(C)C(c1nnnn1C1CCCCC1)N1CCN(C(=O)c2ccco2)CC1 (configuration not stated)	-19	1.5	-3	4	6014	5	9
COc1ccc(-c2nc(N)n(S(=O)(=O)c3ccc(C)cc3)n2)cc1	-45	-0.3	-1	-7	4617	2	10
O=C1c2ccccc2NC2(CCCCC2)N1N=C1CCCCC1	-13	-2.0	-7	-1	2548	0	0
Cc1ccc(C(NC(=O)N2CCCC2)C(Cl)(Cl)Cl)cc1F (configuration not stated)	-11	-3.4	-5	14	2520	5	7
CC1CCN(C(=O)Cn2c(=O)oc3ccccc32)CC1	-6	3.2	7	19	4614	/	/
Cc1ccc(-c2ccc(CCC(=O)O)n2Cc2ccco2)cc1	-12	0.2	0	3	3563	/	/
CCNC(=O)CSc1nc2cc([N+](=O)[O-])ccc2n1-c1cccc(C(F)(F)F)c1	-24	1.3	-8	2	10398	4	-1
CC/C(=N\Nc1ccccc1)c1c(O)n(-c2ccccc2)c(=O)[nH]c1=O	3	4.5	-7	9	3712	3	7
CN(C)C(=O)CSc1cnc2ccccc2n1	-5	2.8	2	-3	3087	11	6
COc1ccc(/C=C(/C#N)C(=O)NC2CCCCC2)cc1Br	-22	6.5	-2	-6	3886	10	20
CCN(C(=O)c1ccc(C)c(Br)c1)c1ccccc1	-8	3.4	2	-2	2754	4	5
O=C(O)c1ccccc1C(=O)NCCCCCCNC(=O)c1ccccc1C(=O)O	-14	1.1	-6	8	2976	9	-1
O=C(c1noc2c1CCCC2)N1CCc2c([nH]c3ccccc23)C1c1ccccn1 (configuration not stated)	-21	2.4	-7	5	2525	3	-2
CCN(CC)C1CCN(C(=O)c2cc(COc3ccccc3SC)on2)C1 (configuration not stated)	-20	-0.8	10	7	5146	5	3
Cc1cnc(C(=O)OC(C)C(=O)Nc2ccc3c(c2)OCCO3)cn1 (configuration not stated)	3	/	6	/	?	/	/
CC(=O)Nc1nc2c(s1)C(=O)NCC(C)(C)C2	/	1.0	-2	6	5381	18	-4
Cc1ccc(OCC(=O)NN=Cc2ccc([N+](=O)[O-])o2)cc1	/	16	/	15	/	1	13
COCCN1C(=O)/C(=C/c2c(OC)cc(OC)cc2OC)C(=O)N(c2ccccc2)C1=O	-18	1.4	5	2	4433	9	14
N#C/C(=C\c1cccn1-c1ccccc1)C(=O)NC1CCCCC1	-35	4.9	5	19	2729	11	6
O=C(C1CCN(c2nnc(N3CCCC3=O)s2)CC1)N1CCN(c2cccc(C(F)(F)F)c2)CC1	7	2.6	8	2	4200	5	-4
CCOc1ccc(S(=O)(=O)Nc2ccc(C(=O)N3CCC3)cc2)cc1	-25	0.4	5	0	6926	5	0
O=C(CSc1ccc([N+](=O)[O-])cc1)Nc1ccccc1N1CCOCC1	-2	6.1	/	-8	4281	-8	-7
CCCn1c2ccc(C)cc2c2n[nH]c(=S)nc21	-2	-4.8	-1	-4	3056	-8	-8
CN1CCOCCOc2ccccc2OCCOCC1	-6	1.0	8	7	4484	1	14
COc1ccc(NC(=O)CN(C)C(=O)c2cc3c(s2)CCCCC3)cc1	-11	-1.4	4	4	5613	7	8
NC(=O)c1ccccc1NC(=O)COC(=O)CSCc1cccc(Cl)c1	-20	4.4	/	2	5831	6	11
CCCCNC(=O)NS(=O)(=O)c1ccc(NC(=O)CCC(=O)c2cccs2)cc1	-7	1.5	3	1	4095	9	-2
COc1cccc(CN(C)CC(=O)NCc2ccccc2Cl)c1	-6	3.9	0	1	2446	5	7
Cc1cc(C)n2nc(SCC(=O)c3cccs3)nc2n1	11	8.9	4	7	4253	-12	-10
CCN(Cc1ccc(NC(C)=O)cc1)CC1CCCN(CCc2cccc(F)c2)C1 (configuration not stated)	-19	1.4	-1	6	/	8	-2
Cc1cc(C)cc(NC(=O)N2CCNC(=O)C2CC(=O)Nc2cc(Cl)ccc2Cl)c1 (configuration not stated)	-26	-1.2	-8	-7	6110	-11	-3
Cc1n[nH]c(C)c1S(=O)(=O)N(CC(=O)NC1CCCC1)c1ccc(C(C)C)cc1	-24	3.1	3	6	4375	/	/
CCc1nnc(NC(=O)CN2CCN(c3ccccc3OC)CC2)s1	-33	5.4	-11	14	10160	8	4
CSc1ccc(/C=C(\NC(=O)c2ccccc2)C(=O)NN)cc1	-25	3.6	-10	-1	4110	2	0
S=c1[nH]nc(COc2cccc3ccccc23)n1Cc1ccccc1	-11	7.6	8	1	4135	4	-2

4 structures already listed, arranged by molecular weight, rising.
SMILES	PrP 5UTR inh	Sa RN4220 lethal	BJeLR viability	ugtP null kill	Bead autofluor	Mtb hypoxia rep	Mtb hypoxia rep growth
CCCn1c2ccc(C)cc2c2n[nH]c(=S)nc21	-2	-4.8	-1	-4	3056	-8	-8
CCc1nnc(NC(=O)CN2CCN(c3ccccc3OC)CC2)s1	-33	5.4	-11	14	10160	8	4
O=C(CSc1ccc([N+](=O)[O-])cc1)Nc1ccccc1N1CCOCC1	-2	6.1	/	-8	4281	-8	-7
CCN(Cc1ccc(NC(C)=O)cc1)CC1CCCN(CCc2cccc(F)c2)C1 (configuration not stated)	-19	1.4	-1	6	/	8	-2

Next part.
SMILES	PrP 5UTR inh	Sa RN4220 lethal	BJeLR viability	ugtP null kill	Bead autofluor	Mtb hypoxia rep	Mtb hypoxia rep growth
COC(=O)CN(c1cc([N+](=O)[O-])ccc1OC)S(C)(=O)=O	-13	4.8	-8	2	4478	0	0
C/C(=N\NC(=O)c1ccncc1)c1cccnc1	-8	/	8	/	6167	/	/
CC(C)(C)CC(=O)Nc1cc(S(=O)(=O)N2CCCCCC2)ccc1Cl	-12	1.8	5	1	2848	13	-4
Nc1ccc(Cl)cc1C(=O)c1ccccc1	-19	11	-1	-4	2248	13	5
C#CC1(NC(=O)NC(=O)c2c(F)cccc2F)CCCCC1	-9	6.8	-11	9	6517	9	10
COc1cc(NC(=S)N2CCC(C(N)=O)CC2)cc(OC)c1	-15	2.9	-16	5	2732	0	2
Cc1ccc2cc(C)c(SCC(=O)Nc3ccc(S(=O)(=O)N4CCCC4)cc3)nc2c1	-24	-0.5	-3	15	4992	4	-9
O=C(NC1CCN(S(=O)(=O)c2ccccc2)CC1)C1CCCCC1	6	6.3	7	9	10455	-1	-4
O=C(NCC(=O)N1CCN(S(=O)(=O)c2ccccc2)CC1)c1ccc(Br)o1	-7	-1.5	-4	0	/	-8	6
COc1ccc(C(=O)NCCc2c[nH]c3ccccc23)cc1[N+](=O)[O-]	-14	-1.7	2	-1	4127	6	5
COc1ccc(-c2cc(COc3ccccc3)on2)cc1	-69	12	-2	18	3360	1	-1
CC(C)OC(=O)CC(=O)CSc1nc2c(cc1C#N)CCC2	-10	4.7	1	-2	3946	/	/
Cc1cc(=O)oc2cc(OCC(=O)NCc3ccncc3)ccc12	/	1.8	1	1	10891	10	9
O=[N+]([O-])c1cc([N+](=O)[O-])c(Oc2cncc(Cl)c2)cc1NC1CCCCCCC1	-13	5.8	9	9	3519	17	8
O=C(Cn1c(=O)oc2cc(S(=O)(=O)N3CCCCCC3)ccc21)NC1CCCCC1	0	3.2	-1	5	4210	8	2
O=C(O)CCCC(=O)Nc1ccc(C(=O)N2CCCCC2)c(Cl)c1	-14	-6.1	5	-3	4676	/	/
Cc1ncsc1CCOC(=O)C1C2CC3CC(C2)CC1C3 (configuration not stated)	-20	14	-11	19	2064	12	7
CN(C)C(=O)CCc1ccc2c3c([nH]c2c1)[C@]1(C)[C@@H](C(=O)N2CCOCC2)C[C@H](CC(=O)NCCC2=CCCCC2)C(=O)N1CC3	1	0.5	/	7	3563	-3	-3
Cc1cccc(C(=O)c2ccccc2C(=O)O)c1O	-36	8.3	13	8	8563	7	18
COc1ccc(OC)c(CNC(=O)C2CCN(S(C)(=O)=O)CC2)c1	-13	-1.9	17	-11	4347	3	3
Nc1ncnc2c1ncn2[C@@H]1O[C@H](CNCc2ccccc2OCc2ccc(Cl)cc2Cl)[C@@H](O)[C@H]1O	-25	2.9	/	-2	3642	-8	-4
CC(C)CCN1CCN(Cc2nc3c(s2)CCCC3)CC1CCO (configuration not stated)	-72	8.0	-2	3	4375	-1	0
O=C(Nc1cccc(F)c1)N1CC=C(n2c(=O)[nH]c3ccccc32)CC1	-9	-21	-4	-6	2890	23	-19
COc1cccc(C2CC(c3cccc(NS(C)(=O)=O)c3)=NN2C(=O)c2ccccc2)c1OC (configuration not stated)	-18	0.4	-6	-12	9447	1	15
CCCCC1CCC(C(=O)NC2CCS(=O)(=O)C2)CC1 (configuration not stated)	-8	2.8	-3	14	2343	8	1
Cc1cc2c(=O)n(Cc3ccco3)c(SCC(=O)N3CCCc4ccccc43)nc2s1	-16	-3.2	-7	-8	13068	5	2
CCC(C(=O)NCc1cccc(C)c1)n1nc(C)c2c(C)n(-c3ccccc3)nc2c1=O (configuration not stated)	-22	2.5	-2	8	5078	4	-1
Cc1ccc(-c2ccc(C(=O)NCc3ccccc3)o2)c2ccccc12	-6	0.8	-5	-3	3689	10	0
COc1ccc(-n2c3c(cc(C(=O)NNc4ccccc4)c2=O)C(=O)CC(C)(C)C3)cc1	-29	5.3	-5	6	4288	-12	4
COc1ccc2nc(SCC(N)=O)cc(C)c2c1	-23	-15	-6	-5	3038	10	12
CCCNS(=O)(=O)c1ccc(-n2cnnn2)c(OC)c1	-24	0.1	-8	1	4391	8	-2
Cc1csc(SC(C)C(=O)Nc2ccc3c(c2)OCCO3)n1 (configuration not stated)	-16	3.6	1	16	3146	16	13
COC(=O)[C@H]1C[C@@H]1[C@H](N)c1ccccc1	-28	/	0	/	3836	/	/
CN(CCCNC(=O)COc1cc(=O)n(C)c2ccccc12)Cc1ccccc1	-7	3.6	9	0	10116	17	5
CCOC(=O)N1CCN(C(=O)CSc2nnc(CNC(=O)c3ccccc3F)o2)CC1	-16	-1.6	11	1	3675	13	7
CN(C)c1nc(N2CCN(c3ccc(F)cc3)CC2)c(C#N)c(=O)o1	0	4.6	-8	-5	?	1	9
CC(=NNc1nncc2ccccc12)c1ccc(C(C)(C)C)cc1	/	0.4	/	4	/	2	-3
CN1/C(=C\C(=O)C[n+]2cccc(C(N)=O)c2)C(C)(C)c2ccccc21	-17	4.8	2	8	2972	9	1
CCOC(=O)C1CCN(S(=O)(=O)c2ccc3c4c(cccc24)C(=O)N3CC)CC1	-11	0.2	/	-9	3748	-5	-1
C=CCNC(=O)NC(=O)Cn1c(=O)c2c(ncn2CC)n(Cc2ccccc2)c1=O	-1	3.6	10	3	3023	-3	6
CCOC(=O)Cc1csc(NC(=O)c2ccc(Cl)s2)n1	/	3.0	-3	3	3420	-13	3
CCOC(=O)C1=C(CN2CCc3ccccc32)NC(=O)NC1c1ccc(Cl)cc1 (configuration not stated)	8	-1.8	5	-34	23461*	-3	-4
Cc1nnc(NC(=O)CSc2nnnn2Cc2ccccc2)s1	-30	5.3	-6	-2	4147	/	/

Part of the list above, comma-delimited.
Molecule,PrP 5UTR inh,Sa RN4220 lethal,BJeLR viability,ugtP null kill,Bead autofluor,Mtb hypoxia rep,Mtb hypoxia rep growth
COc1ccc(-c2cc(COc3ccccc3)on2)cc1,-69,12,-2,18,3360,1,-1
COCCN1C(=O)/C(=C/c2c(OC)cc(OC)cc2OC)C(=O)N(c2ccccc2)C1=O,-18,1.4,5,2,4433,9,14
